MLL AF4-AF9 inh = MLL-AF4/AF9 protein interaction inhibition; 0.47% of 350,000 active; AlphaScreen, biotin-AF4 peptide binding to FLAG-AF9; inhibition, % at 10 µM; AID 651704; P42568;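 active = every replicate reaching a set inhibition limit, whatever the replicate mean, cut at about 25% in these data; inconclusive = mean inhibition reaches that limit but some replicates miss it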;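 also: 0% = plate neutral control median and 100% = total signal loss; the record names both 10 and 1 µM as test concentration; the first replicate is given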
Target sequence (P42568 whole entry, looked up): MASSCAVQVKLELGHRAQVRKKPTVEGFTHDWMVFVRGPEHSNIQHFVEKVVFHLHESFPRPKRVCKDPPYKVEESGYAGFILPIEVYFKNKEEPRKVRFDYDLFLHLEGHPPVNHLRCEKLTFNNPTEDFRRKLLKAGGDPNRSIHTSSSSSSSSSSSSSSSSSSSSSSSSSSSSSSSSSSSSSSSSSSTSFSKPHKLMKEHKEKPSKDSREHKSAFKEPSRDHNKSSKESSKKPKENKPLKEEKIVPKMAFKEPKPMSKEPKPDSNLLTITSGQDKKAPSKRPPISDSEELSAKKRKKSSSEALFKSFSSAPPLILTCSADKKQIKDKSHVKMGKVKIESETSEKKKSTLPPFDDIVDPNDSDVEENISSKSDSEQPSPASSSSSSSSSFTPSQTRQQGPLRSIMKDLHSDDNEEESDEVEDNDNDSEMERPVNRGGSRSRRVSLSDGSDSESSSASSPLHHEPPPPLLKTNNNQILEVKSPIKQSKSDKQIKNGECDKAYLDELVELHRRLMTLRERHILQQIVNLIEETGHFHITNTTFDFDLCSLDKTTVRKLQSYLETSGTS
rRNA inh HTS = inhibitors of bacterial rRNA selective over humanized ribosomes; E. coli WT GFP vs humanized-ribosome RFP mutants, fluorescence, 24 h; active compounds read low; DMSO median 0, no signal -100; GFP signal change (wild-type ribosome), % (concentration not given with the values); 1.6% of 350,000 active; AID 720706;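 active = significant combined selectivity score with lowered wild-type GFP, culture density cut under 30%, mutant RFP and density less affected; inactive = any of these conditions unmet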; also: one replicate is shown; some compounds called inactive have numbers as strong as hits
Calb FLC = C. albicans growth modulation with fluconazole; C. albicans CaCi-2 (fluconazole-resistant clinical isolate) + fluconazole, Alamar Blue growth, 48 h; growth inhibition, % (test concentration not listed); 0.57% of 300,000 active;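 active = most replicates above 75%; inconclusive = exactly half above 75%; inactive = most below 75%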;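 also: all wells also contain fluconazole at 8 µg/ml as a sub-toxic cotreatment; 0% = median of DMSO wells and 100% = median of geldanamycin control wells; wells of about 8 µL received 7.5 nL stock; the first replicate is given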
FGF22 binding = binders of recombinant human FGF22 by thermal shift. Q9HCT0. SYPRO orange fluorescence; percent of sucrose octasulfate shift, DMSO zero. calls only at 9.99 µM. 1.5% of 340,000 active. AID 651658;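 active = melting point raised past a set limit in the mean and every replicate; inconclusive = no clear call; three in four hits are not shown here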
Target sequence (Q9HCT0 whole entry, looked up): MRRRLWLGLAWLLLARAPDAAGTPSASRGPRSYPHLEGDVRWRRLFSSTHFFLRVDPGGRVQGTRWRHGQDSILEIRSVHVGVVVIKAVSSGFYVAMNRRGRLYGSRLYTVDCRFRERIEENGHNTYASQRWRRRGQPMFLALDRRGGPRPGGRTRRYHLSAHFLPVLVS
Beta cell apopt = blocks beta cell apoptosis. protection from apoptosis, % (test concentration not listed). 0.8% of 300,000 active. INS-1E cytokine-induced death, ATP luminescence, 48 h; percent of positive-control rescue, neutral wells zero;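 active = all replicates at 75% or more, or half of them and the mean; inconclusive = half reach 75% but not the mean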;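 also: 0% = cytokine-treated negative control wells and 100% = positive control rescue; higher means more ATP so stronger rescue from cytokine killing; wells of about 40 µL received 100 nL stock; the first replicate is given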
RanGTP-Imp inh = inhibitors of RanGTP-importin-beta interaction, primary screen, biochemical, FRET, CFP-Ran, YFP-importin-beta, homogeneous | cell-free CFP-Ran/YFP-importin-beta FRET ratio | inhibition, % (concentration not given with the values) | 1.1% of 300,000 active;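 active = most replicates above 15%; inconclusive = exactly half above 15%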;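 also: 0% = DMSO wells and 100% = Ran loaded with GDP instead of GTP; wells of about 40 µL received 100 nL stock; the first replicate is given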
ALR H2O2 inh = inhibitors of human sulfhydryl oxidase ALR. purified ALR, DTT oxidation, H2O2 HRP-luminol luminescence. inhibition, % (concentration not given with the values). 3.8% of 290,000 active;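 active = mean and each replicate at 75% or more; inconclusive = only one of the two met; inactive = neither met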;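 also: stock transfer was 7.5 nL into about 7.5 µL; 0% = neutral wells and 100% = wells with inactivated enzyme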
Target sequence (P55789 whole entry, looked up): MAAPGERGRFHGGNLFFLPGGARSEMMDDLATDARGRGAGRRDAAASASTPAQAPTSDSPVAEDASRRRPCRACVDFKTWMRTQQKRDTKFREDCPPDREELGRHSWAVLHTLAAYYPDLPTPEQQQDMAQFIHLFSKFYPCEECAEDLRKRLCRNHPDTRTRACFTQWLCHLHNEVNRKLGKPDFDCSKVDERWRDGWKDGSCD
T cruzi inh = T. cruzi replication inhibition. 1.4% of 300,000 active. AID 1885. T. cruzi beta-gal in NIH3T3, luminescence, 90 h. inhibition, % (concentration not given with the values);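 active = mean inhibition across valid replicates above about 55%, limit read from the data; inconclusive = mean below that limit but half or more replicates reach it; inactive = mean below it, under half of replicates reach it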;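 also: signal also drops with host cell toxicity which is not excluded here; 0% = plate median of DMSO wells and 100% = zero luminescence signal; higher percent means less beta-gal luminescence so fewer parasites; stock transfer was 50 nL into about 50 µL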
rRNA inh HTS OD600 = further read-out of rRNA inh HTS, marked with its call; OD600 change, %; measured here: OD600 growth;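 optical density of the mix in the first replicate; 0 = DMSO median and -100 = no signal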
rRNA inh HTS RFP = second read-out of rRNA inh HTS, no call of its own (marks repeat the call); RFP signal change, %; measured here: RFP humanized mutant strains;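 first replicate; 0 = DMSO median and -100 = no signal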
* = called active by the depositor; i = inactive; ? = inconclusive; nt = no result given; & = joins results of further samples. The list is partial; count on the stated rates, not on these rows.

SMILES	MLL AF4-AF9 inh	rRNA inh HTS	rRNA inh HTS OD600	rRNA inh HTS RFP	Calb FLC	FGF22 binding	Beta cell apopt	RanGTP-Imp inh	ALR H2O2 inh	T cruzi inh
COc1ccc(S(=O)(=O)Nc2ccccc2C(=O)N2CCCC2)cc1OC	6.2	12	5	-2.2	-5	i	0	2.1	nt	-13
O=C(CN1C(=O)NC2(CCc3ccccc32)C1=O)Nc1c(Cl)cccc1Cl (stereo not drawn)	1.0	-1	-6	-10	nt	i	3	nt	-4	nt
CCc1ccc(S(=O)(=O)NCCc2cn3ccsc3n2)s1	?	-4	0	-4.3	0	i	1	3.4	-5	-1
Cc1ccc(Nc2nc(N)nc(CN3CCC(C)CC3)n2)c(C)c1	nt	nt	nt	nt	-3	nt	-3	-3.1	-13	7
CCCCC1CCC(C(=O)N(C)CC(=O)Nc2cccc(OC)c2)CC1 (stereo not drawn)	-4.0	-8	-2	0.2	nt	i	-2	nt	3	nt
O=C(Cn1nc(C(F)(F)F)c2c1CCC2)NCc1ccc(F)cc1	nt	nt	nt	nt	26	nt	-2	-1.9	0	-9
O=C(NCc1nnc(SCC(=O)N2CCN(c3ccccc3)CC2)o1)c1ccc(F)cc1	-1.0	6	4	-3.6	-3	i	2	0.4	5	3
COc1cccc(/C=C2\SC(=S)N(CC3CCCO3)C2=O)c1 (stereo not drawn)	32*	-11	1	-0.8	25	i	-31	2.7	-1	6
CC1CCCC(NC(=O)CSc2n[nH]c(N)n2)C1C (stereo not drawn)	0.8	4	10	-2.7	nt	i	-3	nt	0	nt
CC1=NN(c2ccc(Cl)c(C(=O)O)c2)C(=O)/C1=C/c1ccc(-c2ccccc2[N+](=O)[O-])o1	7.0	12	16	2.7	-6	i	4	-4.0	71	-11
O=C(C1CCN(S(=O)(=O)N2CCC3(CC2)OCCO3)CC1)N1CCCCC1	nt	nt	nt	nt	6	nt	5	3.1	0	-15
CCn1cc(C2Nc3ccccc3C(=O)N2O)c(C)n1 (stereo not drawn)	nt	nt	nt	nt	-4	nt	-4	0.1	-6	-2
CC(OC(=O)Cc1c[nH]c2ccccc12)C(=O)NC1CCCCC1C (stereo not drawn)	1.6	-20	-22	-2.0	nt	i	1	nt	3	nt
CCOc1nc(C)ccc1-c1noc(-c2ccccn2)n1	nt	nt	nt	nt	-5	nt	-6	-2.9	-2	5
COCCCn1c(SCC(=O)NCc2ccco2)nc2sc3c(c2c1=O)CCC3	nt	nt	nt	nt	-3	nt	-4	-0.8	94*	34
COc1ccccc1-c1nc(SCC(=O)N(C)c2ccccc2)c2c(=O)n(C)c(=O)n(C)c2n1	-28	0	1	-2.4	-8	i	nt	-1.8	1	51
CCCCNC(=S)N/N=C/c1ccc(C)s1	nt	nt	nt	nt	-7	nt	9	1.6	66	39
CCOC(=O)c1sc2ncn(C(CC)C(=O)OCC)c(=O)c2c1C (stereo not drawn)	nt	nt	nt	nt	-19	nt	-3	6.4	-7	-7
Fc1ccc(NC(=S)Nc2ccccc2N2CCOCC2)cc1Cl	-1.0	-27*	-17*	-2.4*	-6	i	2	0.1	4	-2
COc1ccc(CCNCC(=O)Nc2ccc(C)c(S(=O)(=O)N(C)C)c2)cc1	1.9	-3	-8	0.8	1	i	-5	0.2	-4	13
N[C@@H](Cc1cc(I)c(Oc2cc(I)c(O)c(I)c2)c(I)c1)C(=O)O	nt	nt	nt	nt	nt	nt	11	0.6	-12	2
COc1ccc(CNC(=O)C(=O)NCC2OCCCN2S(=O)(=O)c2cccs2)cc1 (stereo not drawn)	-1.0	3	-1	1.5	-2	i	-1	7.0	-27	15
Cc1nn(C)c(C)c1NS(=O)(=O)c1ccc(Cl)s1	2.7	-9	-7	7.5	nt	i	4	nt	-5	nt
CCN1C(=O)c2cccc3c(S(=O)(=O)Nc4ccc(OC)cc4OC)ccc1c23	nt	nt	nt	nt	1	nt	19	?	-16	10
Cc1cc(NC(=O)CSc2nc3ccsc3c(=O)n2Cc2ccccn2)n[nH]1	7.8	1	5	0.6	5	i	3	-0.1	-6	22
N#Cc1ccsc1NC(=O)CN1CCCCC1	nt	-3	7	2.2	-3	nt	-1	-1.6	3	-3
Cc1nc([N+](=O)[O-])cn1-c1nc2ccccn2c1[N+](=O)[O-]	-1.3	8	10	-0.9	1	i	-5	3.2	-2	0
CCN(CC)CCN(Cc1cc2ccc(C)c(C)c2[nH]c1=O)C(=S)NCc1ccco1	2.6	8	14	7.8	-3	i	-5	5.4	-19	44
COc1ccc(CNC(=O)CCC(=O)Nc2nnc(C(F)(F)F)s2)cc1	-14	1	8	1.9	-5	i	-3	-3.2	-2	-8
COc1cc(-c2noc(C)c2C#Cc2ccsc2)cc(OC)c1OC	-0.5	-4	-7	-11	-9	i	10	3.6	nt	14
O=C(NCCCN1CCCC1=O)Nc1ccccc1Cl	-1.1	1	2	-5.2	2	i	-5	4.4	-2	9
CCOC(=O)Cc1csc(NS(=O)(=O)c2ccc(NC(C)=O)cc2)n1	-2.6	12	13	-0.7	1	i	25	-5.0	-23	-3
COc1ccc(NC(=O)Cn2c(=O)n(-c3ccccc3)c(=O)c3oc4ccccc4c32)c(OC)c1	nt	nt	nt	nt	13	nt	7	-0.2	-8	1
O=C(COC(=O)c1cccc(Br)c1)NCCNC(=O)COC(=O)c1cccc(Br)c1	-0.7	3	8	-4.0	8	i	-5	6.4	-1	-7
Cc1nc2cc(C(=O)N3CCN(C)CC3)ccc2n1C	-3.2	5	7	-0.8	-6	i	-2	6.4	8	-5
C/C(=N\Nc1ccc(C(=O)c2c(C)cc3ccccn23)cc1[N+](=O)[O-])c1ccc(O)cc1	3.4	12	1	-8.2	2	i	9	1.9	nt	11
Cc1cc(C(=O)OCC(=O)NC(C)C)c(C)o1	nt	nt	nt	nt	-4	nt	-6	4.0	1	-10
Cc1ccc(SC[C@H](Cc2ccccc2)N2CC[C@@H](C)CCC2=O)cc1	-15	-14	-17	-7.0	-9	i	10	-0.2	-5	23
COc1ccccc1C1C(C#N)=C(N)Oc2cc(C)n(CCCn3ccnc3)c(=O)c21 (stereo not drawn)	nt	nt	nt	nt	4	nt	-5	-3.8	nt	0
Cc1noc(C)c1NC(=O)Nc1cccc2c1O[C@H](CN(C)C(=O)Nc1ccccc1)[C@@H](C)CN([C@H](C)CO)C2=O	-1.6&-35	5&5	5&13	-0.4&0.9	nt	i	-17	nt	1	nt
CCOC(=O)Cc1[nH]nc2c1C(c1ccoc1)C(C#N)=C(N)O2 (stereo not drawn)	3.1	8	4	-9.5	-10	i	-5	-1.1	24	-2
O=C(c1ccc(F)cc1)N(Cc1ccccc1)C1CCS(=O)(=O)C1 (stereo not drawn)	nt	nt	nt	nt	-4	nt	-9	-1.2	2	-13
Cc1ccc(N2CC(C(=O)Nc3ccc(S(=O)(=O)N4CCOCC4)cc3)CC2=O)cc1Cl (stereo not drawn)	-0.2	1	8	1.0	-3	nt	nt	1.9	-3	-5
CNC(=O)n1cc(C)c(-c2cccs2)n1	-4.5	6	-4	5.1	-3	i	-1	-1.5	-1	2
COc1ccc(NC(=O)c2cccs2)cc1NC(=O)c1ccco1	nt	nt	nt	nt	4	nt	2	-1.0	-4	10
N[C@@H](Cc1ccccc1)C(=O)N1CCC(C(=O)N[C@@H](Cc2c[nH]c3ccccc23)C(=O)O)CC1	-0.6	8	12	-0.3	1	i	-17	1.3	nt	-9
COc1cc(OC)c(-c2nc(-c3ccncc3)no2)cc1OC	-3.2	19	16	-0.3	-11	i	1	-0.8	-23	-4
COc1ccc(C(=O)O/N=C(\N)c2ccc(OC)c(OC)c2)c(OC)c1	nt	nt	nt	nt	4	nt	2	0.5	-16	12
CC(Sc1ncn[nH]1)C(=O)Nc1ccc(Cl)cn1 (stereo not drawn)	0.7	3	1	1.1	nt	i	-3	-6.4	-3	-3
CSc1ccccc1NC(=O)CN(C)C(=O)C1CC(=O)N(C(C)c2ccccc2)C1 (stereo not drawn)	2.4	3	5	-0.8	nt	i	-4	nt	-9	nt
CSc1ccccc1NC(=S)N/N=C/c1cccn1Cc1ccc(F)cc1	1.3	-21*	-0.8*	5.4*	29	i	14	?	-8	37
CCCOC(=O)c1[nH]c2c(c1C)C(=O)CC(c1ccc(OC)c(OC)c1)C2 (stereo not drawn)	2.5	7	5	-2.4	7	i	-1	5.4	nt	-14
Cn1c(=O)c2cc(S(=O)(=O)Nc3cc(C(=O)O)cc(C(=O)O)c3)ccc2n(C)c1=O	-1.6	17	-1	-5.4	27	i	-2	5.0	-2	-20
O=C(COC(=O)c1cc(=O)[nH]c2ccccc12)Nc1nc(-c2ccccc2)cs1	-3.8	0	1	5.2	5	i	-7	-3.1	-4	1
CCN1CCN(Cc2ccc(NC(=O)c3cc(NC(=O)c4cc(C)on4)cc(OC)c3)cc2C(F)(F)F)CC1	12	-12	-1	0.3	2	i	2	3.2	-16	43
O=C(COC(=O)/C=C/c1ccc(S(=O)(=O)N2CCOCC2)cc1)NCc1ccc2c(c1)OCO2	-3.1	2	0	-4.1	-7	i	nt	0.4	2	-9
COC(=O)CNC(=O)C1(C)C=CCN1C(=O)c1ccccc1 (stereo not drawn)	-2.4	10	7	10	-3	i	-7	2.2	-17	-10
CCCOc1ccc(C(C)=O)cc1CC(C(=O)OCC)C(=O)OCC	nt	nt	nt	nt	3	nt	-7	-2.7	3	-5
CCOC(=O)N1CCN(C(=O)CNC(=O)c2nn(-c3ccc(OC)cc3)c(=O)c3ccccc23)CC1	nt	nt	nt	nt	-1	nt	3	4.9	-9	-1
Cc1ccc2c(c1)C(c1ccc(F)cc1)N(C(=O)c1ccccc1Br)CC(=O)N2 (stereo not drawn)	4.8	-26*	-19*	2.3*	-12	i	3	-1.6	-4	-1

(cont.)
SMILES	MLL AF4-AF9 inh	rRNA inh HTS	rRNA inh HTS OD600	rRNA inh HTS RFP	Calb FLC	FGF22 binding	Beta cell apopt	RanGTP-Imp inh	ALR H2O2 inh	T cruzi inh
Cc1cc(C)c(C#N)c(SCC(=O)Nc2cc(C)on2)n1	-2.7	5	8	-0.4	nt	i	-1	nt	-4	nt
Cc1ccc(-n2c3nc(=O)n(C)c(=O)c-3cc3ccccc32)cc1	0.9	nt	nt	nt	0	i	-9	86*	-19	2
CC1Sc2ccc(S(=O)(=O)CCC(=O)Nc3ccccn3)cc2NC1=O (stereo not drawn)	-14	8	7	0.4	-1	i	-7	-0.7	-1	-7
O=[N+]([O-])c1cccc(CN2CCN(c3cccc4[nH]ccc34)CC2)c1	12	7	2	-0.5	-35	i	2	7.1	99*	-3
CCOC(=O)C1CCN(S(=O)(=O)c2cc(Cl)c(C)cc2OC)CC1	nt	nt	nt	nt	11	nt	-2	-0.7	nt	-16

Pulled one by one from the entries so far, 2 records:
SMILES	MLL AF4-AF9 inh	rRNA inh HTS	rRNA inh HTS OD600	rRNA inh HTS RFP	Calb FLC	FGF22 binding	Beta cell apopt	RanGTP-Imp inh	ALR H2O2 inh	T cruzi inh
CC1Sc2ccc(S(=O)(=O)CCC(=O)Nc3ccccn3)cc2NC1=O (stereo not drawn)	-14	8	7	0.4	-1	i	-7	-0.7	-1	-7
Cc1ccc(-n2c3nc(=O)n(C)c(=O)c-3cc3ccccc32)cc1	0.9	nt	nt	nt	0	i	-9	86*	-19	2
